Screening results deposited in PubChem by Vanderbilt University.
GIRK2 act: activators of human GIRK2 potassium channels; G protein-activated inward rectifier potassium channel 2 (Homo sapiens), P48051; HEK293-GIRK2 thallium flux, Thallos fluorescence; calls only for hits at 25 µM; 63,000 compounds, 0.05% hits; AID 1259325, 2017;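 active = among the strongest 0.2% of first-round signals and kept after retests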;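 also: first round at about 10 µM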
Target sequence (P48051 whole entry, looked up): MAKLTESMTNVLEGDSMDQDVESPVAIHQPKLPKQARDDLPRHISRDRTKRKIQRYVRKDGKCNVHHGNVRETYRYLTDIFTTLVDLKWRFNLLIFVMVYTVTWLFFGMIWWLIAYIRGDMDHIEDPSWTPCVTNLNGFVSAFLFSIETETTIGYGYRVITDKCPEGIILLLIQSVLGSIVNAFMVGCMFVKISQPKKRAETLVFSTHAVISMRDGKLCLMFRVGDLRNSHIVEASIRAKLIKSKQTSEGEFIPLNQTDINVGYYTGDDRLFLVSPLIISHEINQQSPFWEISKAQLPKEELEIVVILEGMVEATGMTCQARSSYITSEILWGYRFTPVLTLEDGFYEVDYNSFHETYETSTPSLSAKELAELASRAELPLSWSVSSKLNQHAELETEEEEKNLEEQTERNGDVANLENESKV
Calls only; i = inactive. Not all compounds are listed. The share of hits here may be higher or lower than overall.

SMILES	GIRK2 act
Cn1nc(CNS(=O)(=O)Cc2ccc(C(F)(F)F)cc2)cc1C1CC1	i
Cc1nc2scc(-c3cccc(NC(=O)Nc4ccccc4)c3)n2c(=O)c1C	i
CCOc1ccc(N2C(=O)C3N=NN(Cc4nc(-c5ccc(C)c(C)c5)no4)C3C2=O)cc1 (centres undefined)	i
Cc1ccc(S(=O)(=O)Nc2nc3ccccc3nc2NCc2ccco2)cc1	i
C#CCOCC1CCN(C(=O)/C=C/c2cccs2)CC1	i
COc1ccc(CCNC(=O)N2CCC(CSc3ccc(OC)cc3)CC2)cc1	i
Cc1cc(NC(=O)C2CCN(C(=O)C3(c4ccccc4)CCOCC3)CC2)no1	i
Cc1cc(F)ccc1S(=O)(=O)NCc1ccc(C(O)c2cccs2)s1 (centres undefined)	i
CCOCC(=O)Nc1cc(C2CC2)nn1-c1nc2c(c(=O)[nH]1)CCCC2	i
CC1CCN(c2nc3c([nH]2)c(=O)[nH]c(=O)n3C)CC1	i

Shown bar-delimited: 2 of the compounds above.
canonical_smiles | GIRK2 act
Cc1cc(NC(=O)C2CCN(C(=O)C3(c4ccccc4)CCOCC3)CC2)no1 | i
Cc1cc(F)ccc1S(=O)(=O)NCc1ccc(C(O)c2cccs2)s1 (centres undefined) | i

(next part)
SMILES	GIRK2 act
Cn1c(=O)c2[nH]c(NCCc3ccccc3)nc2n(C)c1=O	i
COc1ccc(CNC(=O)C(=O)NCC2OCCCN2S(=O)(=O)c2ccc(OC)cc2)cc1 (centres undefined)	i
O=C(c1cc(-c2ccco2)[nH]n1)N1CCN(C(=O)C2CC2c2ccccc2)CC1 (centres undefined)	i
CN(C(=O)Cn1cccc(S(=O)(=O)N2CCCCC2)c1=O)c1ccc(F)cc1	i
CCS(=O)(=O)NCC(Cc1cccc(F)c1)N1CCCC1=O (centres undefined)	i
O=c1cc(CN2CCCCC2)c2cc(O)c(-c3ccccc3)cc2o1	i
CC1=C(/C=C/C(C)=C/C=C/C(C)=C/C(=O)O)C(C)(C)CCC1	i
COC(=O)C(C)Oc1ccc2c(c1)O/C(=C\c1ccc3c(c1)OCO3)C2=O (centres undefined)	i
Cc1cccc(C)c1NC(=O)C1(c2cccs2)CCCC1	i
O=C(Nc1cc(C(F)(F)F)ccc1Cl)C1COCC(=O)N1Cc1ccccc1 (centres undefined)	i
O=C1NC2(CCN(C(=O)c3ccc4c(c3)OCO4)CC2)Nc2cc(Cl)ccc21	i
Cn1c(=O)c2c(nc3n2CCN3Cc2ccc(Cl)cc2Cl)n(C)c1=O	i
O=C(Cc1c(F)cccc1Cl)Nc1nnc(-c2ccsc2)o1	i
COc1ccc(CCC(=O)OC2CN(c3nc4ccc(F)cc4s3)C2)cc1	i
Cc1cccc(CC(=O)NCC2(CO)CC2)c1	i
O=S(=O)(CCOc1ccccc1)NCCc1c[nH]c2ccccc12	i
O=C(NCC(Cc1cccc(F)c1)N1CCCC1=O)c1cnccn1 (centres undefined)	i
COc1ccc(S(=O)(=O)NCc2nnnn2-c2ccc(F)cc2)cc1	i
COc1ccc(Cl)cc1NC(=O)CSc1nccnc1N1CCSCC1	i
COc1cc2nc(SCC(=O)Nc3ccc(C)c(F)c3)n3nc(C)nc3c2cc1OC	i
CCn1c(=O)c2c(nc3n2CCCN3c2ccc(OC)cc2)n(C)c1=O	i
C/C(=C\Cc1c(O)c(Cl)c(C)c(C=O)c1O)C(O)CC1(C)C(C)CCC(=O)C1C (centres undefined)	i
O=C(Nc1nnc(-c2ccc3c(c2)CCCC3)o1)c1cc(-c2ccccc2)on1	i
COc1ccc(CCC(=O)N2CC(c3nc(-c4ccc[nH]c4=O)no3)C2)cc1	i
COC(=O)c1ccc(S(=O)(=O)NCC#CCOc2ccccc2OC)cc1	i
CC1(C)CC(=NNC(=O)c2ccncc2)CC(C)(C)N1	i
O=C(c1cn(-c2cc(N3CCCCC3)ncn2)cn1)N1CCN(C(=O)c2ccco2)CC1	i
CCCc1nnsc1C(=O)N1CCOCC1CN(C)CCO (centres undefined)	i
O=C(CN1CCCCC1)NCCC12CC3CC(CC(C3)C1)C2	i
O=C(O)c1cccnc1SCc1ccc(F)cc1	i
Cc1ccc(CNC(=O)C2CCN(c3ncccc3S(=O)(=O)N3CCCCC3)CC2)cc1	i
CS(=O)(=O)N1CCC(C(=O)Nc2cnoc2)CC1	i
COc1ccc(C(=O)N2CCN(CC(O)C3CC3)CC2)c(OC)c1 (centres undefined)	i
COc1ccc(Cl)cc1C(=O)NC1CCCC(OC(=O)Nc2ccccc2)C1 (centres undefined)	i
Cc1oc(-c2ccc(Cl)cc2)nc1Cn1c(=O)n(C(C)C)c(=O)c2ccccc21	i
COCCNC(=O)N1CCC(c2ccccc2)C1 (centres undefined)	i
Cc1cc(Nc2ccncc2)n2nc(C)c(-c3ccccc3)c2n1	i
Cc1nc(C(=O)Nc2nc3ccccc3[nH]2)cc(-n2cccn2)n1	i
Cc1nc(-c2ccc(Br)c(Cl)c2)no1	i
O=S(=O)(c1ccc(F)c(Cl)c1)N1CCC(Oc2ncccc2Cl)CC1	i
CCCn1c(C(C)(C)C)cn2c3c(=O)n(C)c(=O)n(C)c3nc12	i
CCCNC(=O)C1CCC(Cn2c(=O)c3sccc3n(CC(=O)NC3CCCCC3)c2=O)CC1 (centres undefined)	i
O=C(CSc1ccc(F)cc1)N1CCCC(c2nnc(-c3ccccc3F)s2)C1 (centres undefined)	i
O=C(Cn1cnc2c(nnn2Cc2ccccc2F)c1=O)c1ccccc1	i
Cc1ccc(NC(=O)CSc2nc3c(sc(=S)n3-c3ccccc3)c(=O)[nH]2)cc1F	i
Cc1ncc2c(SCC(=O)NCc3ccc(F)cc3)ncnc2n1	i
Cc1cc(C(=O)N2CC(Oc3nc4c(C(F)(F)F)cccc4s3)C2)c(C)o1	i
CC(C)(C)OCC(O)CN1CCOCC1 (centres undefined)	i
COc1ccc(-c2c(C)oc3cc(OC(C)=O)cc(OC(C)=O)c3c2=O)cc1	i
C1CCN(CC23CC4CCC(CC(C4)C2)C3)C1	i

The list goes on:
SMILES	GIRK2 act
O=C(Nc1ccccn1)C1CCN(c2ccc(-c3ccco3)nn2)CC1	i
COc1ccc(CCNC(=O)c2nnn(Cc3nc(-c4ccc(C)cc4)oc3C)c2C)cc1OC	i
COc1ccc(Cn2c(=O)c3oc4ccccc4c3n(CC(=O)Nc3cc(C)ccc3C)c2=O)cc1	i
O=C(/C=C/c1ccco1)Nc1ccc(CC(=O)NCc2cccs2)cc1	i
COc1ccc(OC)c(S(=O)(=O)Nc2ccc3c(c2)CCCN3S(=O)(=O)c2ccccc2)c1	i
O=C(c1c(F)cccc1Cl)N(CCc1cccs1)Cc1ccco1	i
Cc1ccc(NC(=O)C(=O)NCC2CCN(C3CCCC3)CC2)cc1	i
NC(=O)C1CCN(C(=O)c2cc(=O)c(OCc3ccccc3)co2)CC1	i
Cc1cc2nn(CC(=O)Nc3cccc(C(F)(F)F)c3)c(=O)n2c(-c2ccccc2)n1	i
CCOc1ccc(-c2cc(C(=O)N3CCC(NC(=O)c4cccs4)CC3)[nH]n2)cc1	i

An excerpt of these results, as comma-separated lines.
molecule,GIRK2 act
COc1ccc(Cl)cc1C(=O)NC1CCCC(OC(=O)Nc2ccccc2)C1 (centres undefined),i
CS(=O)(=O)N1CCC(C(=O)Nc2cnoc2)CC1,i
CCOc1ccc(-c2cc(C(=O)N3CCC(NC(=O)c4cccs4)CC3)[nH]n2)cc1,i
Cn1c(=O)c2[nH]c(NCCc3ccccc3)nc2n(C)c1=O,i
COc1ccc(Cl)cc1NC(=O)CSc1nccnc1N1CCSCC1,i
Cc1cc2nn(CC(=O)Nc3cccc(C(F)(F)F)c3)c(=O)n2c(-c2ccccc2)n1,i

Additional results follow.
SMILES	GIRK2 act
CCOc1ccc(-c2ncncc2Oc2ccc(OC)cc2)c(O)c1	i
Cc1ccc(S(=O)(=O)N2CCC(C(=O)Nc3nc(-c4ccc(Cl)cc4)cs3)CC2)cc1	i
COc1ccc(C)cc1NC(=O)c1nc(-c2cn(Cc3ccc(F)cc3)nn2)no1	i
COC(=O)c1ccc(C(=O)N(Cc2cccs2)Cc2cccn2C)cc1	i
Nc1ncc(-c2ccccc2)c(-c2ccc(OCc3ccccc3F)cc2O)n1	i
Cn1c(-c2nonc2N)nc2cnccc21	i
Cc1csc(SCC2CCN(C(=O)Nc3cccs3)CC2)n1	i
Cc1nc2sc(C(c3ccccc3F)N3CC(C)CC(C)C3)c(O)n2n1 (centres undefined)	i
COc1ccc([C@@H]2Sc3ccccc3N(CCN(C)C)C(=O)[C@@H]2OC(C)=O)cc1	i
COc1ccc(CC(C)(O)CNS(=O)(=O)c2cc(C)c(C)cc2C)cc1 (centres undefined)	i
N#Cc1ccc(COCC2CCN(Cc3csc(-c4ccccc4)n3)CC2)cc1	i
Cc1ccc(S(=O)(=O)N(C)c2c(C)ccc(S(=O)(=O)NCCC(=O)O)c2C)cc1	i
Cc1ccc2c(c1)NC(C(=O)Nc1ccc(Br)cc1)NS2(=O)=O (centres undefined)	i
COc1ccc(C2(CNC(=O)C34CC5CC(CC(C5)C3)C4)CCOCC2)cc1	i
O=C(NCc1ccc(F)cc1)Nc1ccc(CC(=O)N2CCOCC2)cc1	i
COc1ccc(N2CC(c3nc(-c4ccc(C)cc4)no3)CC2=O)cc1Cl (centres undefined)	i
CC(C)CN(CC(C)C)C(=O)CN1C(=O)c2ccccc2S1(=O)=O	i
Cn1nc(-c2ccc(F)cc2)cc1C(=O)Nc1cc(N2CCOCC2)ncn1	i
Cc1ccc(S(=O)(=O)N2CCCCC2CCNC(=O)c2snnc2C)cc1 (centres undefined)	i
CCc1nnc(C2CCN(S(=O)(=O)c3cc(C)ccc3C)CC2)s1	i
Nc1c(-c2nc(-c3ccc4c(c3)OCO4)cs2)nnn1-c1ccc(Cl)cc1	i
O=C(CSc1ncn[nH]1)Nc1nsc(-c2ccccc2)n1	i
CCCCCCCCCCCCC/C=C/[C@@H](O)[C@H](CO)NCCCCCCCCC	i
Cc1cc(C)c2nc(C)cc(NC(=O)CN3C(=O)c4ccccc4C3=O)c2c1	i
COc1cccc(C(=O)N2CCN(CC(O)c3cccs3)CC2)c1 (centres undefined)	i
CCn1c(C2CC(=O)N(Cc3ccc(OC)cc3)C2)nc2ccccc21 (centres undefined)	i
Cc1noc(C)c1S(=O)(=O)N1CC(Oc2nc3c(Cl)cccc3s2)C1	i
CCCCC[C@H](O)/C=C/C1[C@H](O)C[C@H](O)[C@@H]1C/C=C\CCCC(=O)OCC(O)CO (some centres undefined)	i
COc1cc(/C=C/C(=O)N2CCC(Oc3cnccn3)CC2)cc(OC)c1OC	i
Cc1ccc(Cn2c(=O)c3c(nc4oc(-c5ccc(F)cc5)cn43)n(C)c2=O)cc1	i
CCOC(=O)COc1ccc2c(c1)O/C(=C\c1ccc3c(c1)OCO3)C2=O	i
COc1ccccc1-n1nnc(-c2nnc(Cc3ccc(Cl)cc3)o2)c1C	i
COc1ccccc1C(=O)N1CCC(CSc2ccccn2)CC1	i
Cc1noc(C2CN(CC(=O)Nc3cc(C(F)(F)F)ccc3Cl)C2)n1	i
Cc1ccc(-c2cc3c(=O)n(Cc4nc(-c5ccccc5C)oc4C)ccn3n2)cc1	i
O=C(NCCc1cccs1)c1nnn(-c2ccccc2F)c1-c1cccnc1	i
CCOC(=O)C1=C(C)NC(=O)NC1c1ccc(OCc2ccccc2)c(OCC)c1 (centres undefined)	i
Cc1cc(F)ccc1S(=O)(=O)NCC1CCN(S(=O)(=O)c2cccnc2)CC1	i
O=C(NCC1COC2(CCCCC2)O1)C1(c2ccc(F)cc2)CC1 (centres undefined)	i
O=S(=O)(Nc1cnc(N2CCOCC2)nc1)c1cc(Cl)ccc1Cl	i

Sorted by molar mass (descending): part of the list above.
SMILES	GIRK2 act
Cc1cc(F)ccc1S(=O)(=O)NCC1CCN(S(=O)(=O)c2cccnc2)CC1	i
Cc1ccc(-c2cc3c(=O)n(Cc4nc(-c5ccccc5C)oc4C)ccn3n2)cc1	i
O=C(NCCc1cccs1)c1nnn(-c2ccccc2F)c1-c1cccnc1	i
O=S(=O)(Nc1cnc(N2CCOCC2)nc1)c1cc(Cl)ccc1Cl	i
COc1ccccc1-n1nnc(-c2nnc(Cc3ccc(Cl)cc3)o2)c1C	i
CCOC(=O)COc1ccc2c(c1)O/C(=C\c1ccc3c(c1)OCO3)C2=O	i
O=C(NCC1COC2(CCCCC2)O1)C1(c2ccc(F)cc2)CC1 (centres undefined)	i

Carrying on:
SMILES	GIRK2 act
Nc1c(-c2nc(-c3ccccc3)cs2)nnn1-c1cccc(Cl)c1	i
Nc1c(-c2nc(-c3ccc4c(c3)OCO4)cs2)nnn1-c1cccc(C(F)(F)F)c1	i
COc1ccc(-c2cc(C(=O)Nc3cc(Cl)ccc3C)no2)cc1	i
O=c1c2ccccc2nc(SCc2nc(-c3ccc4c(c3)OCO4)no2)n1Cc1cccs1	i
COc1ccc(C(=O)N2CCN(c3ncnc4c3nnn4-c3ccccc3)CC2)cc1	i
O=C(NCc1ccco1)C(=O)Nc1ccc(OC(F)(F)F)cc1	i
O=C(CN1C(=O)c2ccccc2C1=O)Nc1sc2c(c1-c1nc3ccccc3s1)CCCC2	i
CCNC(=O)Nc1nc(-c2ccc(Cl)cc2)cs1	i
O=C(CCC(=O)c1ccc(Cl)cc1)NCC1CCS(=O)(=O)C1 (centres undefined)	i
O=C(c1ccccn1)N(Cc1ccoc1)Cc1cccs1	i

2 records picked at random from those above:
SMILES	GIRK2 act
O=C(NCc1ccco1)C(=O)Nc1ccc(OC(F)(F)F)cc1	i
CCNC(=O)Nc1nc(-c2ccc(Cl)cc2)cs1	i

Additional records follow:
SMILES	GIRK2 act
COc1ccc(CNC(=O)c2ccc(Oc3nccnc3N3CCC(C)CC3)cc2)cc1OC	i
Cc1ccc(-n2ncc3c(=O)[nH]c(-n4nc(C)cc4NC(=O)/C=C/c4ccccc4)nc32)cc1	i
O=C(NCCNc1cc(-n2cccc2)ncn1)c1ccco1	i
CCc1nc2sc(C(c3ccc(Cl)cc3)N3CCCCC3)c(O)n2n1 (centres undefined)	i
COCCN(Cc1ccoc1)C(=O)c1ccc(OC(F)(F)F)cc1	i
CS(=O)(=O)N1CCN(c2ccc(N3CCOCC3)nn2)CC1	i
COc1ccc(CCS(=O)(=O)N(Cc2ccoc2)Cc2cccs2)cc1	i
O=C(NCc1cc(-c2ccncc2)n(C2CCCC2)n1)c1ccccc1Br	i
CCN(CC)c1nc2cc(C(=O)OC)ccc2c(=O)n1Cc1ccc(C)cc1	i
CC1CCCCN1C(=O)c1nnn(-c2ccc(F)cc2)n1 (centres undefined)	i
